miR-21 reporter: qHTS Assay for Modulators of miRNAs and/orActivators of miR-21; HeLa miR-21 FLuc reporter, luciferase, 48 h; Potency, µM (top dose mostly 38.3 µM), for the others: at the top dose reporter change, positive = more light; 340,000 tested, under 10 active; AID 2288, 2010; active = well fitted rising curve with a large enough effect; inconclusive = small, poorly fitted or top-dose-only effect; inactive = no such curve, though single readings can be large or run the other way;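 also: % of control where 0% means no effect; miR-21 action dims this reporter so a rising signal means less miR-21 action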
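Luminescence from a firefly luciferase reporter carrying a miR-21 binding site downstream, stably expressed under a CMV promoter in HeLa cells that make miR-21 endogenously, reports miRNA modulation after 48 h compound exposure up to approximately 40uM final.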
* hit, by the source's call; u = inconclusive. Not all compounds are listed. The share of hits here may be higher or lower than overall.

SMILES	miR-21 reporter
Cc1ccc(C)c(NC(=O)C(=O)NCC(c2cccnc2)N2CCN(c3ccc(F)cc3)CC2)c1 (stereo not given)	-16%
CSc1nn(Cc2cccc(C)c2)c(N)c1S(=O)(=O)c1ccccc1	u
COc1ccc(C(=O)Nc2ccc(-c3cc4ccccc4oc3=O)c(C)c2)cc1Br	-5%
COc1ccc(CN2CCc3nc(SCC(=O)Nc4cc(C)cc(C)c4)[nH]c(=O)c3C2)cc1	0%
COc1ccc(N2CC(c3nc(-c4cc(OC)c(OC)c(OC)c4)no3)CC2=O)cc1Cl (stereo not given)	19%
Cc1ccc(Cl)cc1N1CCN(c2ncnc3onc(-c4ccc(F)cc4)c23)CC1	-1%
Cc1ccc(OCC(=O)N(Cc2ccco2)c2ccccn2)cc1	-53%
COc1cc(-c2cc3n(C)c(C)c(CCC(=O)Nc4ccc(F)cc4)c(=O)n3n2)cc(OC)c1OC	9%
CCc1nc2ccc(C(=O)NCCc3ccc(SC)cc3)cc2nc1CC	2%
Cc1cccn2c(=O)c(C(=O)NCc3cccc(F)c3)cnc12	-27%
Cc1csc2nc(-c3cccc(NC(=O)c4c(F)cccc4F)c3)cn12	-16%
COc1cc(CNCCSc2nnnn2C)ccc1OCc1ccc(C)cc1	-47%

A few values from the entries so far:
In miR-21 reporter, COc1ccc(CN2CCc3nc(SCC(=O)Nc4cc(C)cc(C)c4)[nH]c(=O)c3C2)cc1 has the entry 0%
In miR-21 reporter, COc1cc(CNCCSc2nnnn2C)ccc1OCc1ccc(C)cc1 has the entry -47%
In miR-21 reporter, Cc1ccc(C)c(NC(=O)C(=O)NCC(c2cccnc2)N2CCN(c3ccc(F)cc3)CC2)c1 (stereo not given) has the entry -16%
In miR-21 reporter, Cc1ccc(OCC(=O)N(Cc2ccco2)c2ccccn2)cc1 has the entry -53%
In miR-21 reporter, COc1ccc(N2CC(c3nc(-c4cc(OC)c(OC)c(OC)c4)no3)CC2=O)cc1Cl (stereo not given) has the entry 19%
In miR-21 reporter, Cc1cccn2c(=O)c(C(=O)NCc3cccc(F)c3)cnc12 has the entry -27%

Other entries:
SMILES	miR-21 reporter
Cc1ccc2onc(CC(=O)Nc3cccc(C(F)(F)F)c3)c2c1	23%
CC(C)Cn1c(=O)c2ccccc2n2c(CCC(=O)NC(C)c3ccccc3)nnc12 (stereo not given)	2%
CCc1cccc2c(-c3ccccc3)nc(SCC(=O)Nc3ccc(OC)cc3)nc12	2%
COC(=O)C(NC(=O)CC(C)C)(Nc1nc2c(s1)CCCC2)C(F)(F)F (stereo not given)	0%
CCc1ccc(NC(=O)CN2C(=O)c3cccc4cccc2c34)cc1	-7%
CCc1nnc(NC(=O)c2cc(=O)c3cc(C)c(C)cc3o2)s1	-2%
COc1ccc(Cn2c(=O)n(-c3ccc(C)cc3)c(=O)c3c2c2cc(C)ccc2n3C)cc1	-8%
CCC(=O)Nc1ccc2nc(SCCOc3ccc(C)cc3)sc2c1	-13%
Cc1cc(F)ccc1NC1(c2ccccc2)C(=O)c2ccccc2C1=O	0%
Cc1ccc(C)c(NC(=O)Cn2ncc3c([nH]c4ccccc43)c2=O)c1	-2%
CCCCc1ccc(-n2nc3cc(Cl)c(NC(=O)c4ccc(OC)cc4)cc3n2)cc1	-22%
COc1cc2c(cc1OC)C(COc1ccc3c(C)cc(=O)oc3c1)N(C(=O)c1cccc(OC)c1OC)CC2 (stereo not given)	9%
N#Cc1ccccc1Cn1cnc2nc3c(cc2c1=O)CCCC3	-6%
CCCCN(CCCC)CCNC(=O)Cn1nc(CC)n2c(cc3sccc32)c1=O	-8%
CN(C)c1ccc(CNC(=O)C2CCN(S(=O)(=O)c3ccc4c(ccn4C)c3)CC2)cc1	-2%
COc1ccc(N(C(=O)c2cccc(C)c2)S(=O)(=O)c2ccc(C)cc2)cc1	5%
O=C(Nc1ccc(F)c(F)c1)c1cc(S(=O)(=O)NC2CCCCCC2)ccc1F	19%
CCc1ccc(S(=O)(=O)c2cn(C)c3cc(N4CCCC4)c(F)cc3c2=O)cc1	-8%
CN(C)c1ccc(CNc2nc(-c3ccco3)nn2S(=O)(=O)c2ccc(Cl)cc2)cc1	-51%
COc1cc(-c2noc(-c3ccc(N4CCOCC4)c([N+](=O)[O-])c3)n2)cc(OC)c1OC	3%
O=C1C(=O)N(C2CCN(C(=O)c3ccc(Cl)cc3)CC2)CCN1Cc1ccc(F)cc1	-2%
COC(=O)c1ccc(NC(=O)CSc2n[nH]c(-c3ccccc3)n2)cc1	-2%
Cn1c(=O)n(C/C=C/c2ccccc2)c(=O)c2c1nc1n2CCN1c1ccc(F)cc1	-1%
CCCN1CCN(CCNC(=O)Nc2ccc(OC)cc2OC)CC1	8%
CCc1cccc(C)c1NC(=O)Cn1ccn(-c2cccc(OC)c2)c(=O)c1=O	1%
COc1cccc(C(=O)NCC(c2ccc(N(C)C)cc2)N2CCc3ccccc32)c1OC (stereo not given)	-6%
CCOC(=O)c1cc(-c2ccccc2)n(CC(=O)NCc2ccccc2)c1C	-10%
CCCC(=O)Nc1nnc(SCc2cc(=O)c3cc(C)ccc3[nH]2)s1	-2%
Cc1cc2oc(=O)c(CC(=O)O)c(C)c2c2occ(-c3ccccc3)c12	-28%
O=C(NCCc1ccccc1)c1ccc(CS(=O)(=O)Cc2ccccc2Cl)o1	6%
COc1ccc(N2C(=O)CSC23C(=O)N(CC(=O)NCCc2ccccc2)c2ccccc23)cc1 (stereo not given)	6%
CCOc1ccc(-c2nc(SCC(=O)c3ccccc3)n[nH]2)cc1	10%
COc1ccc(C(=O)Nc2c(C(=O)c3ccc(F)cc3)oc3ccccc23)cc1	-5%
Cn1c(=O)c2c(c3ccccc31)OC(=O)CC2c1ccc(C(F)(F)F)cc1 (stereo not given)	-2%
Cc1ccc(OC(C)C(=O)NCC2(N3CCOCC3)CCCCC2)cc1C (stereo not given)	5%
CCCCN(CCCNC(=O)CN1N=C(c2ccccc2)CCC1=O)c1ccccc1	1%
CCOC(=O)Cc1ccc(NC(=O)NCc2ccc3c(c2)CCN3C(=O)CC)cc1	-6%
COc1cc2c(cc1OC)C(COc1ccccc1OC)N(C(=O)COc1ccc(Cl)cc1)CC2 (stereo not given)	18%
CC1Cc2cc(S(=O)(=O)NCCc3ccccc3)ccc2N1C(=O)C1CCC1 (stereo not given)	-7%
O=C(Cn1c(=O)oc2cc(Cl)ccc21)Nc1cccc(C(F)(F)F)c1	0%
O=c1cc(-c2ccccc2)nc(SCc2nc(-c3ccc(C(F)(F)F)cc3)no2)[nH]1	-2%
O=C(Nc1ccc(F)cc1F)c1ccc(-c2ccccc2)s1	-59%
CCC(C(=O)Nc1cc(Cl)ccc1OC)n1nc(-c2ccccc2)ccc1=O (stereo not given)	3%
CCOCCc1nn2c(=O)cc(COC(=O)c3ccc(NC(=O)c4ccc(F)cc4)cc3)nc2s1	-12%
COc1ccc(NC(=O)c2sc3nc4c(cc3c2N)CN(Cc2ccccc2)CC4)c(OC)c1	-5%
CCOc1ccc(-c2nnc(SCC(=O)NCc3ccccc3Cl)o2)cc1	-26%
O=C(Nc1ccc(F)cc1Cl)n1ncc2cc(Cl)ccc21	-1%
COc1ccc(Cn2c(=O)c3ccccc3n3c(-c4cccc(OC)c4OC)nnc23)cc1	-2%
COc1ccccc1NC(=O)CSC1=Nc2ccccc2C2=NC(CC(=O)NCCc3ccccc3)C(=O)N12 (stereo not given)	10%
CCN1CCc2nc3sc(C(=O)Nc4ccccc4OC(F)(F)F)c(N)c3cc2C1	26%
Cc1ccc(Cn2c(C)c3cnn(CC(=O)O)c(=O)c3c2C)cc1	-2%
CCCSc1ncc(Cl)c(C(=O)Nc2sc3c(c2C(=O)OC)CCCC3)n1	-4%
Cc1ccc(-n2nc(C)c3c(C)cc(=O)n(CC(=O)Nc4ccc(Br)cc4F)c32)cc1	1%
CCOc1ccc(-c2cc(CCCC(=O)NCCc3ccc(OCC)c(OCC)c3)no2)cc1	27%
Clc1cccc(Nc2ncnc3c2nc2n3CCCCC2)c1	3%
COc1cccc(CNC(=O)c2cc3c(s2)-c2c(C)cccc2OC3)c1	-6%
O=C(Cn1c(=O)n(CCCS(=O)(=O)C2CCCCC2)c(=O)c2ccccc21)Nc1ccccc1F	-1%
O=C(C1CCC(CNS(=O)(=O)c2ccc(Br)s2)CC1)N1CCN(c2ccccc2Cl)CC1 (stereo not given)	0%
CCOC(=O)c1ccccc1NC(=O)Nc1cc2c(cc1N1CCCCC1)n(C)c(=O)n2C	-6%
Cc1ccc(NC(=O)CSc2nc(-c3cccs3)cc(C(F)(F)F)n2)cc1C	21%

A stretch from the list above, for reference:
SMILES	miR-21 reporter
COc1ccccc1NC(=O)CSC1=Nc2ccccc2C2=NC(CC(=O)NCCc3ccccc3)C(=O)N12 (stereo not given)	10%
CCN1CCc2nc3sc(C(=O)Nc4ccccc4OC(F)(F)F)c(N)c3cc2C1	26%

(cont.)
SMILES	miR-21 reporter
COc1ccc(/C=C(\C#N)c2nc(-c3ccc(Cl)c(Cl)c3)cs2)cc1OC	-1%
CCOc1ccccc1C(=O)Nc1ccc(S(=O)(=O)Nc2onc(C)c2C)cc1	-24%
O=C(NCCc1ccccc1)c1c[nH]c2ccc(S(=O)(=O)Nc3ccc(F)cc3F)cc2c1=O	-4%
O=C(Cc1ccccc1)Nc1nnc2n1CCS2	0%
CCOC(=O)C1CCN(C(=O)c2cnn(-c3ccc(F)cc3)c2-n2cccc2)CC1	1%
CCn1cc2nc(SCc3ccccc3Cl)n(CCc3ccccc3)c(=O)c2n1	24%
COc1ccccc1NC(=O)CSc1oc(-c2ccco2)nc1S(=O)(=O)c1ccc(C)cc1	3%
COc1cccc(CNC(=O)c2ccc(NC(=O)N3CCCCc4ccccc43)cc2)c1	0%
CCc1cccc(NC(=O)CN2C(=O)COc3ccc(S(=O)(=O)Nc4ccccc4)cc32)c1	18%
COc1ccccc1Nc1nc2c(S(=O)(=O)c3ccc(C(C)C)cc3)nnn2c2ccsc12	2%
Cc1ccc(C(=O)c2cn(Cc3cccc(Cl)c3)c3nc(C)ccc3c2=O)cc1	-4%
Cc1ccc(S(=O)(=O)Nc2cc3c(cc2C)n(C)c(=O)c(=O)n3C)cc1	-12%
COc1ccc(OC)c(NC(=O)c2cccn2-c2nnc(N3CCCCC3)s2)c1	0%
O=S(=O)(c1ccc(-c2cnc(C3CC3)o2)cc1)N1CCN(c2cccc(Cl)c2)CC1	4%
Cc1ccc(OCC(=O)Nc2cc(-c3cccc(C)c3)nn2-c2ccccc2)cc1	-25%
O=C(CCS(=O)(=O)c1cc2c3c(c1)CCN3C(=O)CC2)NCc1ccc(F)cc1	3%
Cc1ccc(OCC(=O)NNC(=S)NC(=O)C2CC2)c(C)c1	22%
COC(=O)c1c(NC(=O)CCCOc2cccc(C)c2)sc2c1C(C(=O)OC)CC2 (stereo not given)	10%
COc1ccc(C(=O)Nc2ccc3nc(N4CCC(C)CC4)cc(C)c3c2)cc1	4%
COc1ccc(-c2nnc(SCC(=O)NCc3ccccc3)nc2-c2ccc(OC)c(OC)c2)cc1OC	u
CCOC(=O)c1cc(-c2ccccc2)n(-c2cccc(C(=O)Nc3cc(OC)cc(OC)c3)c2)c1C	-3%
CCc1cccc(C)c1NC(=O)c1cc(S(=O)(=O)N2CCC3(CC2)OCCO3)ccc1F	-1%
CCC(C(=O)N(C)Cc1ccccc1)n1nc(C)c2sc3ccccc3c2c1=O (stereo not given)	-12%
Cc1ccc(C(=O)Nc2ccc(C(=O)OCc3cc(=O)n4c5c(sc4n3)CCCC5)cc2)cc1	-32%

Next part; the last 3 above are carried over.
SMILES	miR-21 reporter
CCc1cccc(C)c1NC(=O)c1cc(S(=O)(=O)N2CCC3(CC2)OCCO3)ccc1F	-1%
CCC(C(=O)N(C)Cc1ccccc1)n1nc(C)c2sc3ccccc3c2c1=O (stereo not given)	-12%
Cc1ccc(C(=O)Nc2ccc(C(=O)OCc3cc(=O)n4c5c(sc4n3)CCCC5)cc2)cc1	-32%
COc1ccc(N(Cc2cccs2)C(=O)Nc2ccccc2)cc1	-5%
Cc1ccc2nc(-c3cc(NC(=O)COc4ccc(C)c(C)c4)ccc3Cl)oc2c1	-3%
COC(=O)c1c(NC(=O)c2ccc(OC)cc2OC)sc2c1CCCCC2	-6%
COC(=O)c1ccccc1NC(=O)c1ccc2c(Cl)c3c(nc2c1)CCCC3	-2%
COc1cccc(CNC(=O)c2nn(-c3ccccc3Cl)nc2CO)c1	7%
COc1ccc(C)cc1NC(=O)Nc1cccc(-c2noc(C)n2)c1	14%
CCN(CC)S(=O)(=O)c1ccc2c(c1)nc(CN(C)C(=O)Nc1cccc(Cl)c1)n2C	14%
CC(=O)c1c(C)oc2ccc(N(C(=O)Oc3ccccc3)S(=O)(=O)c3ccccc3)cc12	-5%
c1ccc(-n2ncc3c(NC4CCCC4)ncnc32)cc1	24%
O=C(NCC(c1ccco1)S(=O)(=O)c1cccs1)c1ccc(F)cc1 (stereo not given)	-12%
CCOc1ccc(NC(=O)C2CC(=O)NC(=Nc3ccc(Cl)c(Cl)c3)S2)cc1 (stereo not given)	0%
COc1ccccc1NC(=O)C1=C(C)Nc2ncnn2C1c1ccc[nH]1 (stereo not given)	-2%
Cc1ccccc1-c1nc(NC(=O)CSc2ncnc3sc4c(c23)CCCC4)ns1	1%
COc1cc(OC)cc(-n2c(=O)c3sccc3n(Cc3cc(=O)n4c(C)cccc4n3)c2=O)c1	-2%
COC(=O)Cc1c(C)nc2nc(NCc3ccc(Br)cc3)[nH]n2c1=O	2%
Cc1ccc(Cn2c(=O)c3cccnc3n(Cc3ccc(C)cc3)c2=O)cc1	-8%
Cc1c(Cl)cccc1-n1ncc(C(=O)N2CCC(C)CC2)c1C1CCN(C(=O)OC(C)(C)C)CC1	-7%
COc1ccc(C)cc1NS(=O)(=O)c1ccc2[nH]c(=O)c(=O)[nH]c2c1	-3%
CCOc1ccc(NC(=O)Cn2cc(C(=O)c3ccc(C)c(C)c3)c(=O)c3cc(F)ccc32)cc1	7%
COc1ccc(NC(=O)c2sc3nc(C)c(C(=O)Nc4ccc(C)cc4C)c(-c4ccc(Cl)cc4)c3c2N)cc1	6%

Bioassay records as filed in PubChem BioAssay.
